Ecoli growth – E. coli growth inhibition, primary screen, OD600. Escherichia coli growth, 23 h; active compounds read low. OD600 absorbance (test concentration not listed). 330,000 tested, 0.21% active. AID 1053175, 2014;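 active = OD600 absorbance below the run mean of sample wells minus 3.6 SD, in any replicate, cut at about 0.56 in these data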;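 note: stock transfer was 300 nL into about 60 µL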
UCH37 DUB inh – inhibitors of human UCH37 deubiquitinase, primary screen, biochemical, Ub-AMC cleavage, fluorescence. Ubiquitin carboxyl-terminal hydrolase isozyme L5 (Homo sapiens), Q9Y5K5. purified proteasome/UCH37. inhibition, % (test concentration not listed). 330,000 tested, 0.33% active. AID 588478, 2011;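 active = mean of two replicates above 20%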;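 note: 0% = compound-free wells with enzyme and 100% = wells lacking proteasome; stock transfer was 100 nL into about 20 µL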
Target sequence (Q9Y5K5 whole entry, looked up): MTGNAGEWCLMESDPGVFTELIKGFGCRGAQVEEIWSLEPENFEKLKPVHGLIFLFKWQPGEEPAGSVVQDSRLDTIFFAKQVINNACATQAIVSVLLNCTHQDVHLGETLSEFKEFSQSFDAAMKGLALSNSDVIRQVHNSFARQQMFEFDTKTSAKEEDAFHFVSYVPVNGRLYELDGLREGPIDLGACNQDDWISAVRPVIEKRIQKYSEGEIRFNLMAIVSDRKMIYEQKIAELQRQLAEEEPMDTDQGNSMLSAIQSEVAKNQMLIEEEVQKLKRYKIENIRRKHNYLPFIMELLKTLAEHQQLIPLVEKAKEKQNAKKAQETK
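Signal – fluorescence, ex 355 nm, em 460 nm · System – Proteasome-bound UCH37 · Input – 0.15 nM proteasome as dispensed · Timing – 30 min preincubation with enzyme, 25 min cleavage at room temperature · Read-out basis – percent inhibition of cleavage signal versus uninhibited and no-proteasome wells · Medium – Tris-HCl pH 7.4 with ATP-MgCl2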
Starred values were filed as active, the others as inactive. A portion of the library; rates above refer to the full screens.

Values run as follows: Ecoli growth, UCH37 DUB inh
Nc1nnnn1N=Cc1ccccc1OCc1ccccc1
→ 0.72, -2.7
CCOC(=O)C1=C(C)N=c2sc(=Cc3ccc(OCC(=O)O)cc3)c(=O)n2C1c1ccccc1 (stereo not given)
→ 0.62, 1.6
C=C(C)CNC(=S)NN=C1CCCCc2ccccc21
→ 0.71, -0.6
CC1CCN(Cc2c(C(=O)NN=Cc3ccc(C(F)(F)F)cc3)nnn2-c2nonc2N)CC1
→ 0.68, 1.4
Cc1ccc(NS(=O)(=O)c2ccc(NN=Cc3ccccc3OCC(=O)O)c([N+](=O)[O-])c2)c(C)c1
→ 0.66, 11
CC(C)COC(=O)c1cccc2c1-c1ccccc1C2=NO
→ 0.74, 2.0
O=c1[nH]nc(NN=Cc2ccc(Cl)cc2Cl)c(=O)[nH]1
→ 0.7, 7.2
O=C(CNc1n[nH]c(=O)[nH]c1=O)NN=Cc1cccnc1
→ 0.7, 7.2
Nc1nnnn1CC(=O)NN=Cc1cc([N+](=O)[O-])ccc1O
→ 0.71, 6.6
COc1ccc(C=NNC(=O)c2cc(-c3ccc4c(c3)OCO4)n[nH]2)cc1OC
→ 0.71, -137
Cc1nn(-c2ccccc2)c(C)c1C=NN1CCN(c2ccccc2)CC1
→ 0.74, 0.7
COc1ccc(C2C(C(C)=O)=C(C)N=c3sc(=Cc4ccco4)c(=O)n32)c(OC)c1 (stereo not given)
→ 0.74, 7.4
COc1ccc(CCCC(=O)NCC(=O)NN=Cc2cc(Cl)ccc2OC)cc1
→ 0.69, -5.8
COC(=O)NN=C(C)c1ccc(-n2ccnc2)cc1
→ 0.67, 1.3
O=C(CC(=O)Nc1cccc(Cl)c1)NN=Cc1ccccc1
→ 0.68, 4.7
O=C(CCCC(=O)Nc1cccc(Br)c1)NN=Cc1cc([N+](=O)[O-])ccc1O
→ 0.67, 10
COc1cc(C=NNC(=O)c2cc[n+]([O-])cc2)cc(OC)c1OC
→ 0.67, 11
O=C(Cc1ccc(F)cc1)NN=Cc1ccc2c(c1)OCO2
→ 0.75, 1.7
N#Cc1ccc(N2Cc3ccccc3C2=NC(=O)Nc2ccc(Cl)cc2)cc1
→ 0.7, -40
CCN(CC)C(=O)COc1ccc(C(C)=NNc2ncc(Cl)cc2Cl)cc1
→ 0.69, 5.3
CC(C)(C)C(=O)c1no[n+]([O-])c1C(=NO)C(C)(C)C
→ 0.68, 1.6
Brc1ccc(C=NNc2nc3ccccc3o2)cc1
→ 0.71, -26
COc1cc(C=NNC(=O)CCN2CCN(C)CC2)cc2c1OCO2
→ 0.69, 1.4
COc1ccccc1N1CCN(N=Cc2ccc(O)c(O)c2)CC1
→ 0.69, 6.4
O=C(NN=Cc1cn[nH]c1-c1ccc(Cl)cc1)c1cccs1
→ 0.67, -7.7
Cc1ccc(S(=O)(=O)N=C(c2ccccc2)N(C)c2ccc(O)cc2)cc1
→ 0.7, 3.6
CC(=NNS(=O)(=O)c1ccccc1)c1ccc2c(c1)OCCO2
→ 0.65, 2.4
O=C(NN=Cc1ccc2c(c1)OCO2)/C(=C/c1ccc2c(c1)OCO2)NC(=O)c1ccccc1
→ 0.79, -8.0
CCOC(=O)c1sc(NN=Cc2ccc(N(C)C)cc2)nc1C
→ 0.69, -21
NC(=NOC(=O)c1ccc([N+](=O)[O-])cc1)c1cccnc1
→ 0.67, 5.0
COc1ccc(CNC(=O)CC(C)=NNC(=O)c2ccccc2OC)cc1
→ 0.69, -0.3
COc1cc(C=NNc2ncnc3sc4c(c23)CCC4)ccc1O
→ 0.7, -0.5
CNC(=O)N(O)C1N(N=Cc2cccnc2)C(=S)SC1(C)C (stereo not given)
→ 0.69, 6.2
COc1ccc(OC)c(C=NNC(=O)CCc2ccc(O)c(O)c2)c1
→ 0.71, -427
CC(=NNS(=O)(=O)c1ccc(C)cc1)c1cccs1
→ 0.68, 3.7
COc1ccc(Nc2nc3ccc(C)cn3c(=O)c2C=NO)cc1
→ 0.69, 2.2
CCOC(=O)Cc1csc(NN=Cc2ccccc2OC)n1
→ 0.71, -5.3
Cc1cc2c(C)nc(NN=Cc3ccc([N+](=O)[O-])cc3)nc2o1
→ 0.71, 5.5
COCCN=c1scc(-c2cccs2)n1N=Cc1ccc(O)c(O)c1O
→ 0.73, 2.2
O=C(NN=Cc1ccc(Cl)cc1Cl)c1ccc2nc[nH]c2c1
→ 0.66, 3.8
O=C(NN=Cc1ccccc1Cl)c1cccc(F)c1
→ 0.62, 2.6
COc1cc(C=NNc2ccnc(=O)[nH]2)ccc1O
→ 0.67, 12
CC(=NNC(=O)OC(C)(C)C)c1ccc[nH]1
→ 0.71, 4.2
Cc1ccc(-c2n[nH]c(=S)n2N=Cc2cccn2C)cc1
→ 0.72, 4.9
O=C1N/C(=N/N=Cc2ccco2)SC1Cc1ccccc1 (stereo not given)
→ 0.69, 5.5
COc1ccccc1/C=C/C=Nn1c(C)nnc1C
→ 0.71, -23
CC(=NNC(=O)c1nc2ccccn2c1C)c1cc2ccccc2o1
→ 0.66, 9.5
COC(=O)c1ccc(C=NNC(=O)c2ccc3nc[nH]c3c2)cc1
→ 0.71, 3.2
O=C(NN=Cc1ccc(Cl)cc1)C1=NOC2COC3(CCN(c4ccc([N+](=O)[O-])cc4)CC3)OCC12 (stereo not given)
→ 0.69, 7.6
COc1ccc(C=NNC(=O)Cn2cnc3c2c(=O)n(C)c(=O)n3C)c(OC)c1OC
→ 0.66, 4.9
CSC(=S)NN=Cc1c[nH]c2ccccc12
→ 0.59, 4.1
COc1ccc(C=NNC(=O)c2[nH]c3ccc(Br)cc3c2-c2ccccc2)c(C(=O)O)c1OC
→ 0.65, -49
CCc1ccc(NC(=O)CC(C)=NNC(=O)COc2ccccc2C)cc1
→ 0.71, -0.4
COc1ccc(OC)c(C=NNC(=O)c2cc3c(OC)cccc3[nH]2)c1
→ 0.66, -110
COc1ccc(C=NNC(=O)c2ccc(-c3ccccc3)cc2)cc1COC(C)=O
→ 0.74, -8.3
CC(=NNC(=O)Cc1cccn1C)c1ccc2ccccc2c1
→ 0.73, 0.2
O=C(CCCCCNC(=O)c1ccccc1)NN=Cc1ccccc1O
→ 0.73, -23
NC(Cc1nc(-c2ccc(F)cc2)cs1)=NO
→ 0.7, 1.6
Nc1ccc(Cl)cc1C(=NO)c1ccccc1
→ 0.71, 2.6
O=C(NN=C1SCC(=O)N1Cc1ccco1)c1ccccc1F
→ 0.65, 1.1

In the list so far, these contain a nitro group on carbon.
Values run as follows: Ecoli growth, UCH37 DUB inh
Cc1ccc(NS(=O)(=O)c2ccc(NN=Cc3ccccc3OCC(=O)O)c([N+](=O)[O-])c2)c(C)c1
→ 0.66, 11
Nc1nnnn1CC(=O)NN=Cc1cc([N+](=O)[O-])ccc1O
→ 0.71, 6.6
O=C(CCCC(=O)Nc1cccc(Br)c1)NN=Cc1cc([N+](=O)[O-])ccc1O
→ 0.67, 10
NC(=NOC(=O)c1ccc([N+](=O)[O-])cc1)c1cccnc1
→ 0.67, 5.0
Cc1cc2c(C)nc(NN=Cc3ccc([N+](=O)[O-])cc3)nc2o1
→ 0.71, 5.5
O=C(NN=Cc1ccc(Cl)cc1)C1=NOC2COC3(CCN(c4ccc([N+](=O)[O-])cc4)CC3)OCC12 (stereo not given)
→ 0.69, 7.6

New compounds follow
Values run as follows: Ecoli growth, UCH37 DUB inh
Cc1ccccc1OCC(=O)NN=C1SCC(=O)N1Cc1ccccc1
→ 0.68, 6.6
COC(=O)/C=C1\S/C(=N/N=Cc2ccc(Cl)cc2)NC1=O
→ 0.63, 8.1
COc1ccccc1CNC(=O)CC(C)=NNC(=O)Cc1ccc(OC)c(OC)c1
→ 0.61, 0.9
COc1cc(C=NNC(=O)c2cccc3ccccc23)ccc1OCC(N)=O
→ 0.68, 2.9
CN(N=Cc1ccc2c(c1)OCO2)c1ccccc1
→ 0.71, 1.8
O=C(CC(=O)NN=Cc1ccccc1O)NCc1cccnc1
→ 0.63, -17
COc1cc(C(=O)NN=Cc2ccc(OC(=O)c3ccccc3Cl)c(OC)c2)ccc1O
→ 0.69, 1.8
COc1cccc(C=Nn2c(SC)nnc2-c2ccccc2)c1OC
→ 0.69, -4.9
O=C(CN1CCN(Cc2ccccc2)CC1)NN=C/C=C/c1ccco1
→ 0.67, 15
CCOc1ccc2ccccc2c1C=NNC(=O)c1ccc([N+](=O)[O-])cc1
→ 0.64, 1.9
CCCCCC(=O)Nc1ccc(C(=O)NN=Cc2ccc([N+](=O)[O-])cc2)cc1
→ 0.7, -19
CC(=NNC(=O)CCc1c[nH]c2ccccc12)c1ccc([N+](=O)[O-])cc1
→ 0.71, 2.2
O=[N+]([O-])c1ccccc1NN=Cc1ccccc1Cl
→ 0.71, 5.2
CCC(=O)NN=Cc1ccc(-c2ccc(Cl)cc2)o1
→ 0.67, 0.2
Cc1cc(C)cc(-n2c(C)cc(C=NNC(=O)COc3cccc4cccnc34)c2C)c1
→ 0.69, 3.3
CON=C/C(C#N)=C/c1ccc(OC)cc1
→ 0.71, 14
COc1cc(C=Nn2c(-c3cc(C)[nH]n3)n[nH]c2=S)cc(OC)c1OC
→ 0.7, 3.1
O=C(NN=Cc1cc(Cl)cc([N+](=O)[O-])c1O)C1CC1
→ 0.67, 9.8
COc1cc(C=NNC(=O)c2nonc2N)c(OC)cc1Br
→ 0.68, -13
O=[N+]([O-])c1ccc(NN=Cc2cccc(O)c2)cc1
→ 0.62, 0.1
O=C(NN=Cc1cc2c(cc1Br)OCO2)c1cccnc1
→ 0.67, 9.2
COc1cc(C=NN=C(N)c2nonc2N)cc(Br)c1OCc1cccc(C)c1
→ 0.74, 11
Cc1cccc(-c2cc(C(=O)NN=Cc3cccnc3)c3ccccc3n2)c1
→ 0.68, 1.5
CCOc1ccc(Cl)cc1C=NO
→ 0.69, -0.2
CC(=NNC(=S)NCc1ccccc1)c1ccc(Cl)cc1
→ 0.71, 3.1
Nc1nonc1-n1nnc(C(=O)NN=Cc2ccncc2)c1CN1CCCCC1
→ 0.67, 2.2
Cc1nn(C)cc1C=NNC(=O)Cn1nnc(N)n1
→ 0.69, 1.0
COc1ccc(NC(=O)CCC(=O)NN=Cc2ccc([N+](=O)[O-])s2)cc1
→ 0.65, 9.2
COc1ccc(CCNC(=O)CC(C)=NNC(=O)Cc2cccc3ccccc23)cc1OC
→ 0.64, 1.3
CCOC(=O)c1cc(C(C)=NOC(=O)c2ccc(C(C)(C)C)cc2)on1
→ 0.63, 4.8
CCCCOc1ccc(C=NNC(=O)c2nnn(-c3nonc3N)c2CN2CCCCCC2)cc1
→ 0.73, 1.2
O=C(CSc1n[nH]c(=O)[nH]c1=O)NN=Cc1ccccc1O
→ 0.64, 2.5
CC(=O)Nc1ccc(C(=O)NN=Cc2cc(Br)cc(Br)c2O)cc1
→ 0.7, -3.7
CC(=NNS(=O)(=O)c1ccc(C)c([N+](=O)[O-])c1)c1cccs1
→ 0.67, 4.1
O=S(=O)(N=C(c1ccccc1)N1CCOCC1)c1ccc(F)cc1F
→ 0.71, 3.4
CN(C)c1ccc(C=NOC(=O)Nc2ccccc2Cl)cc1
→ 0.67, 3.8
Cc1cccc(OCC(=O)ON=C(N)c2ccccn2)c1
→ 0.7, -0.3
COc1ccc(C(C)=NNC(=O)c2ccc3c(c2)OCO3)cc1OC
→ 0.59, 5.1
COc1cc(OC)cc(C(=O)Oc2ccc(C=NNc3nc4ccccc4s3)cc2OC)c1
→ 0.75, -17
CCCOc1ccc(C=NNc2ccccc2[N+](=O)[O-])c(O)c1
→ 0.7, 11
Cc1cccc(NC(=O)CCC(=O)NN=Cc2cc([N+](=O)[O-])ccc2O)c1
→ 0.68, 7.5
CCNC(=S)NN=Cc1ccc(OCc2ccc(C(=O)OC)cc2)cc1
→ 0.64, 0.8
CC(=NNC(=O)c1cccc(S(=O)(=O)N2CCOCC2)c1)c1ccc(C#N)cc1
→ 0.72, 3.0
O=C(NN=Cc1ccc(O)cc1)c1cc(-c2ccccc2)nc2ccccc12
→ 0.64, -7.8
Cc1ccc(-n2c(SCC(=O)NN=Cc3ccc(C)s3)nnc2-c2ccccc2)cc1
→ 0.68, 1.9
O=C(NN=C(CC(=O)c1cccs1)C(F)(F)F)c1ccc(O)cc1
→ 0.68, 4.1
Nc1ccc(C(=O)NN=C/C=C/c2ccc([N+](=O)[O-])cc2)cc1
→ 0.69, 3.6
O=C(CNC(=O)c1cccc(Br)c1)NN=Cc1ccc[nH]1
→ 0.69, 0.4
CN(C)c1ccc(C=NNC(=O)CNC(=O)/C=C/c2ccccc2)cc1
→ 0.7, -25
CCNC(=S)NN=C(C)c1ccc2c(c1)OCCO2
→ 0.71, 5.1
COc1ccc(C=Nn2cnnc2)cc1COc1ccccn1
→ 0.73, 3.9
COc1cc(C=NNC(=O)CSc2ccccn2)ccc1O
→ 0.71, 8.4
CC(=NNc1nc2ccccc2[nH]1)c1cccs1
→ 0.63, 6.3
CC(=NNC(=O)c1cc(-c2ccco2)nc2ccccc12)c1cccnc1
→ 0.7, -430
C(=NN1CCOCC1)c1nc(-c2ccccc2)n2ccccc12
→ 0.73, 11
CCOc1ccc(C(=O)NN=Cc2ccc(-c3ccc(S(=O)(=O)Nc4ncccn4)cc3)o2)cc1
→ 0.75, -118
COc1ccc(C(C)=NNC(=O)c2ccncc2)cc1[N+](=O)[O-]
→ 0.64, 2.2
CCOc1cc(C=NNC(=O)C(=O)NCc2cccnc2)ccc1O
→ 0.68, 12
O=C(Cn1cnc2ccccc21)NN=Cc1ccccc1
→ 0.64, 1.5
Nc1nnnn1N=Cc1cccc(OCc2ccccc2Cl)c1
→ 0.74, 3.5
Cc1ccsc1C=NNC(=O)CNC(=O)c1ccccc1
→ 0.69, 3.9
COCCNC(=S)NN=C(C)CCc1ccc2c(c1)OCO2
→ 0.64, 1.4

Screening results from PubChem BioAssay.
